VCAM-1 rise = enhancers of VCAM-1 display on endothelial cells, cell-based, plate reader, pooled HUVEC, TNFa stimulus (AID 455) | HUVEC TNFa-induced VCAM-1 immunofluorescence, plate reader; numbers were filed only for top-ranked candidate wells | augmentation, % at 5 µM | actives 0.2% (n = 10,000);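 active means a compound raising TNF-alpha-driven VCAM-1 surface staining, with its hit status upheld on visual or statistical review; inactive means the rest, including hits rejected on review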;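 further: 0% = TNFa with vehicle and 100% = strongest image-checked hit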
26S disassembly = inhibitors of ATP-driven 26S proteasome dissociation, primary screen, biochemical, bead-based flow cytometry, GFP-tagged proteasome. actives 0.2% (n = 24,000). AID 751, 2007. anti-FLAG beads, GFP-proteasome disassembly. inhibition of disassembly, % (no concentration beside the values);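 active means above 40%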;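 further: plate controls were ATP control with full disassembly for no effect and ATP-gamma-S intact proteasomes for full effect; higher percent means more bead fluorescence retained so stronger block of disassembly; stock transfer was 100 nL into about 10 µL; wells with too few beads may also be inconclusive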
The depositor's hits bear a star; i = inactive; / = not tested or not shown.

#	VCAM-1 rise	26S disassembly	mol
1	i	5.6	COc1ccc(-n2c(SCC(N)=O)nc3sc4c(c3c2=O)CCN(C)C4)cc1
2	/	0.2	Cc1ccc(NC(=O)CCn2c(=O)oc3ccccc32)cc1
3	/	0.6	CC1CCc2nn(CC(=O)NCCC3=CCCCC3)cc2C1 (configuration not stated)
4	i	-2.0	COc1ccc(Br)cc1S(=O)(=O)N1CCOCC1
5	/	1.4	c1cn2c(NC3CCCC3)c(-c3ccc(N4CCOCC4)cc3)nc2cn1
6	/	2.8	COc1ccc(-c2cc(CCCC(=O)NCCc3cc(OC)ccc3OC)no2)cc1
7	/	1.7	CCOc1ccccc1N(C)C(=O)C1CCN(S(=O)(=O)c2cccc3nonc23)CC1
8	/	-0.9	CCOC(=O)N1CCN(C(=O)CCc2c(C)nc3nc(C)nn3c2C)CC1
9	/	0.2	CC1=C(c2ccc(C)cc2)S(=O)(=O)N(CC(=O)O)C1=O
10	/	2.2	COc1ccc(-c2coc3cc(O)ccc3c2=O)cc1OC
11	i	-1.1	Cc1oc2cc3c(C(=O)OCCN(C)C)c(C)oc3cc2c1C(=O)OCCN(C)C
12	/	0.7	O=C(CN1C(=O)c2ccccc2C1=O)Nc1cccc2cccnc12
13	i	1.4	CC(NCCC(c1ccccc1)c1ccccc1)c1ccccc1 (configuration not stated)
14	/	-1.4	CSc1nnc(Cn2c(=O)sc3ccccc32)n1-c1ccccc1C
15	/	-0.1	O=C(CN1CCN(C2CCCCC2)CC1)c1ccc2cc[nH]c2c1
16	/	-0.7	CCc1ccccc1S(=O)(=O)Cc1ccc(C(=O)NCC2CCCO2)o1 (configuration not stated)
17	/	-0.1	CCSc1oc(-c2ccco2)nc1S(=O)(=O)c1ccc(F)cc1
18	/	-2.2	CCN(c1ccccc1)S(=O)(=O)c1cnc[nH]1
19	i	1.6	Cc1ccc(C2=Nc3ccccc3NC(C)(c3ccc(C)o3)C2)o1 (configuration not stated)
20	i	0.8	CN1CCCC(OC(=O)c2ccc3c(c2)OCCO3)C1 (configuration not stated)
21	i	-2.8	O=C(OCc1cccs1)c1ccccc1NS(=O)(=O)c1ccc2c(c1)OCCO2
22	i	2.5	Cc1ccc2nc(CSc3nnc(-c4ccco4)n3-c3ccccc3)cc(=O)n2c1
23	i	-0.2	O=C(NCCCN1CCOCC1)c1ccc(CS(=O)(=O)c2c(Cl)cccc2Cl)o1
24	/	1.6	CC(C)CCNC(=O)Cn1c(=O)oc2cc(S(=O)(=O)N3CCc4ccccc43)ccc21
25	i	4.1	COc1cccc(CC(NC(C)=O)C(=O)NC2CCN(c3c4c(nc5ncnn35)CCC4)CC2)c1 (configuration not stated)
26	i	1.2	CCOC(=O)c1ccc(NC(=O)Cn2cc3c(n2)CCC(C)C3)cc1 (configuration not stated)
27	i	1.3	O=C(NC1CCS(=O)(=O)C1)OC1CCCCC1 (configuration not stated)
28	i	-2.0	Cc1ccc(/C(O)=C2\C(=O)C(=O)N(CCCN(C)C)C2c2ccccn2)cc1 (configuration not stated)
29	/	1.7	COc1ccc(S(=O)(=O)N2CCN(c3cccc(C)c3C)CC2)cc1
30	i	0.3	CCCn1cc(C(CC(=O)O)C(=O)O)c2ccccc21 (configuration not stated)
31	/	-1.3	CC1=C(C(N)=O)C(c2cccnc2)n2nc(-c3cccc(C)c3)nc2N1 (configuration not stated)
32	/	1.6	COc1ccc2oc(=O)c(C(=O)N3CCN(C45CC6CC(CC(C6)C4)C5)CC3)cc2c1
33	/	-0.5	CCOc1ccc(NC(=O)c2oc3ccccc3c2NC(=O)CC)cc1
34	/	-0.8	Cc1ccc(C)c(Cn2cnc3c(cnn3C(C)(C)C)c2=O)c1
35	/	-1.7	CCOC(=O)N1CCN(C(=O)c2ccc3nc(SCc4ccc(F)cc4)n(C)c3c2)CC1
36	i	1.2	CCn1cc(C(=O)NC2CCc3ccccc32)c(=O)c2ccc(C)nc21 (configuration not stated)
37	/	-0.5	Cc1cc(Nc2ccc(F)cc2Cl)n2ncnc2n1
38	/	-2.3	CCCNC(=O)c1ccc2c(c1)ncn2-c1ccccc1OC
39	/	0.6	CC(O)c1nc2ccc(Cc3ccc4nc(C(C)O)[nH]c4c3)cc2[nH]1 (configuration not stated)
40	i	6.3	COCCOC(=O)c1[nH]c2c(c1C)C(=O)CC(c1ccc(N(C)C)cc1)C2 (configuration not stated)
41	/	0.2	COC(=O)C(CCSC)NC(=O)C(NC(=O)C1CCC(C)CC1)C(C)C (configuration not stated)
42	/	0.6	Cc1nc2cc(-c3cccc(F)c3)nn2c(C)c1CCC(=O)N1CCN(c2ccccn2)CC1
43	i	0.8	CCOC(=O)C1=C(C)NC2=C(C(=O)CC(C)(C)C2)C1c1ccc(N(C)C)cc1 (configuration not stated)
44	/	0.9	Cc1ccc(CN2CC34C=CC(O3)C(C(=O)NCc3ccc5c(c3)OCO5)C4C2=O)cc1 (configuration not stated)
45	/	-0.3	Cc1cc(N2C(=O)c3ccc(C(=O)NCc4ccccc4)cc3C2=O)no1
46	/	-0.5	COc1ccc(N(C)C(=O)c2ccc3snnc3c2)cc1
47	/	4.1	Cc1nn(Cc2ccc(C(=O)N3c4ccc(F)cc4CCC3C)o2)c(C)c1Br (configuration not stated)
48	/	1.1	COC(=O)c1ccc(COc2ccc(-c3nn[nH]n3)cc2)cc1
49	i	0.9	Cc1nn(C(=O)c2ccoc2C)c(N)c1-c1ccccc1
50	/	1.3	CCOC(=O)C(C)Sc1ncnc2nc[nH]c12 (configuration not stated)
51	/	-3.6	CC1=C(C(N)=O)C(c2cccs2)n2nc(-c3cccc(C)c3)nc2N1 (configuration not stated)
52	i	1.7	CC1(C)CC2CC(C)(CN2S(=O)(=O)c2ccc(N)cc2)C1 (configuration not stated)
53	/	0.3	O=C(C(NS(=O)(=O)c1cccc2nsnc12)c1ccccc1)N1CCN(c2ccccn2)CC1 (configuration not stated)
54	i	2.3	CCOc1cccc(-n2nnnc2-c2ccc(OC)cc2)c1
55	/	1.1	O=C(Nc1ccc(Cl)cc1)OCCn1nnnc1C(c1ccccc1)N1CCOCC1 (configuration not stated)
56	i	-0.5	CN(Cc1ccco1)C(=O)Cn1c(=O)oc2cc(S(=O)(=O)NCc3ccccc3)ccc21

The list goes on.
#	VCAM-1 rise	26S disassembly	mol
57	/	0.8	COC(=O)C(Cc1ccccc1)NC(=O)CSc1nc(C)cc(=O)[nH]1 (configuration not stated)
58	/	7.2	O=C(CSc1nccc2ccccc12)N1CCN(Cc2ccc3c(c2)OCO3)CC1
59	i	2.5	COc1cccc(NS(=O)(=O)c2ccc3[nH]cc(C(=O)NC4CC4)c(=O)c3c2)c1
60	i	-0.5	COc1cc(NS(=O)(=O)c2ccc(N)cc2)ncn1
61	/	5.6	Cc1ccc(-c2cc(C(=O)NCc3ccco3)c3ccccc3n2)o1
62	/	-0.6	COc1ccc(CNC(=O)c2cccc3c2C(=O)N(Cc2cccnc2)C3)cc1
63	i	10	Cc1cc2oc(=O)cc(CN3CCCCC3)c2cc1C(C)C
64	/	-1.4	CCOC(=O)Cn1c(=O)oc2cc(S(=O)(=O)NCC3CCCO3)ccc21 (configuration not stated)
65	/	-1.2	Cc1nc2ccc(S(=O)(=O)NC(C(=O)N3CCC(C)CC3)C(C)C)cc2s1 (configuration not stated)
66	/	0.7	O=C(O)Cn1ncc2c1-c1ccoc1CC2
67	/	-1.5	CCOC(=O)N1CCC(NC(=O)Cn2ncc3c2-c2cc(C)ccc2OC3)CC1
68	/	0.7	Cc1cc(C)n(-c2ccc(F)cc2)c(=O)c1C(=O)O
69	i	-15	Cn1c(=O)[nH]c(=O)c2c1nc(Br)n2CCCSc1nc2ccccc2o1
70	i	-3.4	Cc1cc(-c2ccccc2)nc(SCc2ccc(C(=O)O)o2)n1
71	/	-0.9	O=C(Nc1nccs1)C1CCCN1S(=O)(=O)c1cccc2cccnc12 (configuration not stated)
72	/	0.6	COc1ccc(N2CCN(C(=O)c3ccc(N4C(=O)NC5CC4(C)Oc4ccccc45)cc3)CC2)cc1 (configuration not stated)
73	/	-2.6	C=CCNc1ncnc2ccccc12
74	i	0.2	COC(=O)c1ccc2c(c1)C(=O)N(C1CCCCC1)C2=O
75	i	0.4	COc1ccc(C2CC(c3cccs3)n3nc(N)nc3N2)cc1 (configuration not stated)
76	/	0.9	Cc1ccc(C)c(N2CCN(C(=O)CN3C(=O)c4ccccc4C3=O)CC2)c1
77	/	0.8	COc1ccc(N2CCN(C(=O)C(Cc3ccccc3)n3cccc3)CC2)cc1 (configuration not stated)
78	i	-2.3	COCCCNCC(=O)Nc1ccc(OC(F)(F)F)cc1
79	i	-4.0	CC(C)CN1C(=O)c2ccc(C(=O)Nc3nccs3)cc2C1=O
80	/	0.6	Cc1noc(/C=C/NCc2cccnc2)c1S(=O)(=O)N(C)CC(=O)N1CCc2ccccc21
81	/	-0.5	O=C(c1cccs1)N1CCN=C1SCc1cccnc1
82	/	0.3	O=C(O)C1C2C=CC(O2)C1C(=O)Nc1ccccc1C(F)(F)F (configuration not stated)
83	i	-6.7	COCC(=O)n1nc(NCc2ccc(OC)cc2)nc1NCc1ccc(OC)cc1
84	/	3.5	Cn1c(=O)oc2cc(S(=O)(=O)N3CCCC(C(=O)N4CCn5c4nc4ccccc45)C3)ccc21 (configuration not stated)
85	i	3.5	CS(=O)(=O)N(CC(=O)N1CCCCCC1)c1ccccc1
86	/	0.4	CCOC(=O)N1CCN(C(=O)c2ccc(Cn3c(=S)[nH]c4cc5c(cc4c3=O)OCO5)cc2)CC1
87	i	-1.1	CCN1CCN(C(=O)N[C@@H](C(=O)N[C@@H]2C(=O)N3[C@@H]2SC(C)(C)[C@@H]3C(=O)O)c2ccccc2)C(=O)C1=O
88	i	-1.0	COc1ccc(C(C(C(=O)c2cccs2)N2CCOCC2)N2CCOCC2)cc1OC (configuration not stated)
89	i	-0.2	Cc1cccc(NCc2ccccc2O)c1
90	i	-0.9	COc1cc2c(cc1OC)CN(Cc1nc3ccsc3c(=O)[nH]1)CC2
91	i	0.2	Cc1cc(NC(=O)COC(=O)C2COc3ccccc3O2)no1 (configuration not stated)
92	/	1.1	CCOc1ccc(-c2cc(CCCC(=O)Nc3cc(OC)ccc3OC)no2)cc1
93	/	-3.7	CCOC(=O)N1CCC(C(N)=O)CC1
94	i	-1.2	O=C1NC(c2ccccc2)(C(F)(F)F)SC2=NCCCN12 (configuration not stated)
95	/	0.9	CC(=O)Nc1ccc(S(=O)(=O)NC(CC(=O)NCCCN2CCOCC2)C(C)C)cc1 (configuration not stated)
96	/	-2.4	Cc1csc(NC(=O)C(CC(C)C)NS(=O)(=O)c2ccc3c(c2)oc(=O)n3C)n1 (configuration not stated)
97	/	1.0	CCc1ccc(-c2nc(CN3CCC(C(=O)N4CCN(c5ccccn5)CC4)CC3)c(C)o2)cc1
98	i	0.9	CCCCN(CCCNC(=O)C1CCN(S(=O)(=O)CC)CC1)c1ccccc1
99	/	1.0	CC1(C)CC(n2c(=S)[nH]c3ccccc3c2=O)CCO1 (configuration not stated)
100	i	0.1	CCOc1ccccc1NC(=O)CCSc1nc2n[nH]c(C)c2c(=N)n1-c1ccccc1Cl
101	/	1.8	CC(NC(=O)Cc1ccc(F)cc1)C(c1cccs1)N1CCN(C)CC1 (configuration not stated)
102	/	-0.5	CCOCCCNC(=O)CN1C(=O)CSc2cc(S(=O)(=O)N3CCCCCC3)ccc21
103	/	-2.9	CCN1CCCC1CNC(=O)C1CCCN(S(=O)(=O)c2cccc3nsnc23)C1 (configuration not stated)
104	i	2.0	CC(=O)c1ccc(NS(=O)(=O)c2ccccc2)cc1
105	i	0.3	COc1cc2c(cc1NC(=O)CN1CCN(S(=O)(=O)c3ccc(F)cc3)CC1)oc1ccccc12
106	/	-4.3	COc1ccc(S(=O)(=O)Cc2ccc(C(=O)N3CCCC3)o2)cc1
107	/	-1.2	CCn1c(=O)cc(SCC(=O)NCc2ccco2)c2ccccc21
108	/	0.0	NC(=O)C1(N2CCCCC2)CCN(C(=O)c2cccn3c(=O)c4cc(Cl)ccc4nc23)CC1
109	/	-1.4	COc1ccc(OC)c(CN2C(=O)CCC2(C)C(=O)NC2CCCCCC2)c1 (configuration not stated)
110	i	0.8	CCOC(=O)c1sc(C)c2c1NC(C)(c1cccs1)NC2=O (configuration not stated)
111	i	-0.1	CCOC(=O)C(C)(C)Sc1nc2c(cnn2-c2ccc(Cl)cc2)c(=O)[nH]1
112	/	-0.7	Cc1nn(Cc2ccccc2Cl)c(C)c1NC(=O)c1cc(-c2ccc(F)cc2)on1

Screening data from PubChem BioAssay.

Only part of the results is shown, so the mix of outcomes need not match the whole.
